High-throughput results (PubChem)
eIF4H FP inh = inhibitors of RNA binding by human eIF4H; eIF4H fluorescence polarization binding assay; inhibition, % at 35 µM; 290,000 tested, 0.94% active;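 active = 50% or more with normal probe brightness, or confirmed in later tests; about a fifth of its hits are not listed in these tables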;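 note: calls also rest on retests at 20 µM and on dose response follow-up; 0% = protein and probe with vehicle and 100% = probe without protein; strong numbers were not always called active; many hits fall short of the cut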
Yeast UUG start = alters start codon recognition fidelity in yeast | activity score, % at 18.7 µM | 350,000 tested, 0.13% active | S. cerevisiae UUG-firefly luciferase reporter, luminescence/redox ratio | AID 602363;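 active = replicate mean at a twofold rise or more, about +100% in these data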;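 note: firefly luciferase made from a UUG start codon reports start codon fidelity; reporter light over untreated wells divided by growth signal over untreated wells; some hits fall short of that in this replicate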
Rce1 inhib = blocks yeast Ras-converting enzyme | AID 2563 | yeast membranes, quenched prenylated peptide cleavage fluorescence | calls only | Q03530 | 290,000 tested, 0.27% active;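 active = fall in fluorescence gain of 50% or more versus controls, with final raw signal at or below 3038400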;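 note: plate controls were neutral control wells for no effect and wells lacking membranes for full effect; tested at 10 µM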
PABP polyA inh = blocks human PABP binding to poly(A) RNA | P11940 | fluorescence polarization | inhibition, % at 35 µM | 290,000 tested, 1% active;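 active = 50% or more with normal probe brightness, or confirmed in later tests; about a fifth of its hits are not listed in these tables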;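 note: calls also rest on retests at 20 µM and on dose response follow-up; controls were probe without protein and protein plus probe with vehicle; some compounds called inactive have numbers as strong as hits; many hits fall short of the cut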
Target sequence (P11940 whole entry, looked up): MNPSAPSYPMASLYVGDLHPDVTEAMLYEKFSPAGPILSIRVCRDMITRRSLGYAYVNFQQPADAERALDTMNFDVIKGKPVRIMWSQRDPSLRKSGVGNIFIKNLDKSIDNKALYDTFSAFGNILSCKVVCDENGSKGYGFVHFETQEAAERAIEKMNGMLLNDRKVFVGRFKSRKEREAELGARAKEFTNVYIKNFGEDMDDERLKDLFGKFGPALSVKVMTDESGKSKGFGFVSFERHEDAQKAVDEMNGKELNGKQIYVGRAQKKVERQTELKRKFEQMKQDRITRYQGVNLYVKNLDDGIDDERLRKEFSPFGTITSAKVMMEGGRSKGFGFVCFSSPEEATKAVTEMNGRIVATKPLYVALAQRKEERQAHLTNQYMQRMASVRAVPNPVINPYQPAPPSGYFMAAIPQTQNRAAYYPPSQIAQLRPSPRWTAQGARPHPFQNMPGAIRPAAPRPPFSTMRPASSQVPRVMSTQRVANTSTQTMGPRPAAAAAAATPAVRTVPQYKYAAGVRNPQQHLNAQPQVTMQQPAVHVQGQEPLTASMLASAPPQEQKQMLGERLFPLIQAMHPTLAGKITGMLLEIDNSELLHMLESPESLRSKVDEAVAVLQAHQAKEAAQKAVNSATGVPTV
MT1-MMP act inh = blocks activation of human MT1-MMP; HT1080 RFP-PRO-GFP cells, GFP/RFP ratio fluorescence, overnight; percent of plate control window, DMSO zero; GFP/RFP ratio change, % at 20 µM; 360,000 tested, 0.061% active;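 active = GFP/RFP ratio change of at least 30% with cell ATP level not reduced by more than half and red fluorescence within 50% of control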; note: strong numbers were not always called active
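Assay system: HT1080 RFP-PRO-GFP cells | Dosing: 20 µM single dose, 1% DMSO | Incubation: Cells overnight before dosing, compound overnight, 37 °C, 5% CO2 | Evaluation: GFP/RFP fluorescence ratio | Control set: DMSO-only wells and HT1080 RFP-L50D-GFP cell wells as references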
Env fusion inh = blocks HIV Env-driven cell-cell fusion; HeLa-JRFL Env/CEM21 cell fusion, luciferase; inhibition, % at 12.3 µM; 360,000 tested, 1.1% active;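 active = mean replicate inhibition score of at least 50 and every replicate individually at or above 50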;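 note: 0% = plate neutral controls and 100% = maraviroc near 300 nM; one replicate is shown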
CSC inhib = cancer stem cell inhibition. cancer stem cell-like cells viability, luminescence. inhibition, % at 7.5 µM. 300,000 tested, 1.1% active;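 active = mean at 75% or more and at least half the replicates too; tested in HMLE shEcad cells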;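 note: 0% = median of negative and 100% = median of positive control wells; the first replicate is given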
eIF4H FP inh retest = further read-out of eIF4H FP inh, marked with its call; inhibition, %; compound at 20 µM; confirmation average;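 mean of two retest wells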
PABP polyA inh retest = recorded beside PABP polyA inh, whose call it bears; inhibition, %; compound at 20 µM; confirmation repeats;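 mean of two retest wells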
MT1-MMP act inh RFP = second read-out of MT1-MMP act inh, no call of its own (marks repeat the call); RFP signal change, %; measured here: RFP expression control read;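 0 = vehicle wells; hits needed this value within 50% of zero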
* marks the source's active call; other numbers are inactive results; i = inactive; . = no result given. Outcome played no part in choosing rows; overall some 3% were active at least once.

SMILES | eIF4H FP inh | Yeast UUG start | Rce1 inhib | PABP polyA inh | MT1-MMP act inh | MT1-MMP act inh RFP | Env fusion inh | CSC inhib | others
O=C(O)CCC(=O)NNC(=O)c1cccs1 | -18 | . | i | 1 | 5 | 6 | 17 | -2
COc1ccc(/C=N/n2cncn2)cc1COc1ccc(NC(C)=O)cc1 | 1 | -11 | i | -3 | -3 | 2 | . | 2
Cc1ccc(S(=O)(=O)/N=C(\c2ccc(Cl)cc2)N2CCOCC2)cc1 | -2 | -8 | i | 9 | -3 | 1 | . | -7
CN(C)c1ccc(S(=O)(=O)N2CCCCC2)cc1NC(=O)CN1C(=O)NC(C)(c2ccccc2)C1=O (configuration not stated) | . | 5 | . | . | 1 | -4 | 4 | -1
CSc1ccccc1NC(=O)c1ccc(N2CC3CC(C2)c2cccc(=O)n2C3)c(NC(=O)c2ccncc2)c1 (configuration not stated) | -21 | -2 | i | -6 | -2 | 0 | -6 | -22
CCCCNC(=O)CSc1nc2ccc(NC(=O)CSc3nnc(N)s3)cc2s1 | -19 | -6 | i | -16 | 1 | -10 | 11 | 0
NC(=O)NCC(=O)N1CCC(C(O)(c2ccccc2)c2ccccc2)CC1 | -3 | -4 | i | 0 | -2 | 4 | 15 | -2
CC(=O)NC(Cc1ccc(C(C)C)cc1)C(=O)NC1CCN(c2nc(C)cc(C)n2)CC1 (configuration not stated) | -16 | -20 | i | 6 | 2 | -12 | -53 | -9
COc1ccc(-c2cc(C(F)(F)F)nc(S(=O)(=O)CCCC(=O)Nc3cccnc3Cl)n2)cc1OC | -4 | . | . | 6 | -5 | -11 | 2 | .
O=C(/C=C/c1ccccc1Cl)OCC(=O)N1CCc2ccccc21 | . | -14 | . | . | -3 | 2 | -8 | .
CCc1ccc(OCC(=O)O/N=C(\N)c2ccncc2)c(Br)c1 | -13 | -17 | i | 3 | 3 | -3 | -141 | -2
COC(=O)c1sccc1NC(=O)Nc1ccccc1C | -4 | -12 | i | -5 | -3 | -1 | . | 0
COC(=O)c1c(C)nc(C)c(C(=O)OC)c1-c1ccsc1 | -8 | -9 | i | 6 | -3 | -4 | 4 | -2
COc1ccc(O)c(/C=N/NC(=O)CN2CCS(=O)(=O)CC2)c1 | -10 | -19 | i | -10 | 6 | 9 | -4 | 7
CCN(CC)C(=O)c1ccc2c(=O)n(Cc3cccc(Br)c3)c(=S)[nH]c2c1 | 10 | . | i | 4 | . | . | 32 | 8
O=C(NCc1nc2ccccc2[nH]1)C1=C[C@@H](c2ccc(C(F)(F)F)cc2)C[C@@H](OCCCCO)O1 | . | -5 | i | . | 3 | -1 | -43 | 5
Cc1cccn2cc(-c3cc4ccccc4oc3=O)nc12 | -8 | -16 | i | 5 | 1 | -1 | 13 | -4
O=C(Cn1nnc(-c2ccccc2)n1)N/N=C/c1cc([N+](=O)[O-])c(Cl)cc1Cl | -1 | . | . | 1 | 8 | 5 | 10 | -5
CCCn1c(=N)c(S(=O)(=O)c2ccccc2)cc2c(=O)n3ccccc3nc21 | -3 | . | i | 9 | 14 | -1 | 15 | -7
COC(=O)CC1(C(=O)OC)Oc2ccc(Br)cc2C(=O)N1c1cccc(Cl)c1Cl (configuration not stated) | -8 | . | . | -5 | -12 | -15 | 65* | 42
CCOCCCNS(=O)(=O)c1ccc(NC(=O)C2CC(=O)N(c3ccc(C)cc3)C2)cc1 (configuration not stated) | -6 | -11 | i | -4 | 12 | 4 | 20 | -9
Clc1cccc(Cl)c1COc1ccccc1CNn1cnnc1 | 7 | . | i | 1 | 1 | -2 | 12 | 28
CCOC(=O)c1cn(CC2CC2)c2cc(F)c(F)cc2c1=O | -10 | -11 | i | -10 | 5 | 1 | 10 | -13
CCOC(=O)c1cnn(-c2ccc(F)cc2)c1N | -2 | . | i | -3 | -1 | 0 | 19 | 2
COc1ccc(NC(=O)c2cccc(NC(=O)C(C)C)c2)c([N+](=O)[O-])c1 | 0 | -19 | i | 9 | -7 | 0 | 7 | 7

Next part; the last 6 above are carried over.
SMILES | eIF4H FP inh | Yeast UUG start | Rce1 inhib | PABP polyA inh | MT1-MMP act inh | MT1-MMP act inh RFP | Env fusion inh | CSC inhib | others
COC(=O)CC1(C(=O)OC)Oc2ccc(Br)cc2C(=O)N1c1cccc(Cl)c1Cl (configuration not stated) | -8 | . | . | -5 | -12 | -15 | 65* | 42
CCOCCCNS(=O)(=O)c1ccc(NC(=O)C2CC(=O)N(c3ccc(C)cc3)C2)cc1 (configuration not stated) | -6 | -11 | i | -4 | 12 | 4 | 20 | -9
Clc1cccc(Cl)c1COc1ccccc1CNn1cnnc1 | 7 | . | i | 1 | 1 | -2 | 12 | 28
CCOC(=O)c1cn(CC2CC2)c2cc(F)c(F)cc2c1=O | -10 | -11 | i | -10 | 5 | 1 | 10 | -13
CCOC(=O)c1cnn(-c2ccc(F)cc2)c1N | -2 | . | i | -3 | -1 | 0 | 19 | 2
COc1ccc(NC(=O)c2cccc(NC(=O)C(C)C)c2)c([N+](=O)[O-])c1 | 0 | -19 | i | 9 | -7 | 0 | 7 | 7
Cc1cccc(Cc2ncc(C(F)(F)F)cc2Cl)c1 | -2 | -13 | i | -7 | 4 | 0 | 9 | -9
CCCCN1C[C@H](c2ccccc2)[C@@H](CC(=O)NC)C1=O | . | -12 | . | . | -2 | -2 | -9 | .
CN(C(=O)C1CCOC1)c1nnc(-c2ccccn2)s1 (configuration not stated) | 6 | -23 | i | 0 | 9 | 0 | . | -1
CCOC(=O)c1c(CN2CCCCC2)n(C)c2ccc(OC)c(S(=O)(=O)c3ccccc3)c12 | -10 | -3 | i | 4 | -1 | 1 | . | -5
CC(C)(C)Cc1nnc(NC(=O)c2ccco2)s1 | -5 | -9 | i | -9 | 0 | 2 | -20 | -1
C[C@H](NC(=O)c1nc[nH]c1C(=O)NCc1ccc(CNC(=O)OC(C)(C)C)cc1)C(=O)OCc1ccccc1 | . | 18 | . | . | 5 | 1 | -12 | -10
Cc1nn(-c2ccccc2)c(N)c1N=Nc1ccc(Cl)cc1 | -8 | -14 | . | -10 | 2 | -5 | -34 | 79*
N/C(=N\OC(=O)/C=C/c1ccccc1Cl)c1cccnc1 | -6 | -21 | i | 1 | -1 | 0 | -63 | -5
COc1ccc([C@H]2CC(=O)C=C(c3cc(Cl)ccc3C)C2)cc1 | . | -12 | . | . | 2 | -7 | -8 | 14
CCOc1ccc(Cl)cc1S(=O)(=O)N1CCN(c2ccc(C)c(C)c2)CC1 | -12 | -14 | i | 10 | -3 | -10 | 17 | 35
C=Cn1c(N2CCOCC2)nc2c1c(=O)[nH]c(=O)n2C | -14 | 10 | i | 0 | 3 | 6 | . | -6
CN=C1SC(CC(=O)Nc2ccccc2F)C(=O)N1/N=C/c1ccc(O)c(OC)c1 (configuration not stated) | -7 | . | i | 4 | 1 | 0 | -52 | -10
FC(F)(F)c1ccccc1CN1CCC(Cc2ccccc2)CC1 | 4 | 6 | i | 11 | 2 | 5 | 18 | 5
C#CCSc1nc(N)c2c(n1)OC(N)=C(C#N)C2c1cccnc1 (configuration not stated) | -10 | . | i | 5 | 3 | 6 | 6 | 1
CCCN1CCN(c2nc3c([nH]2)c(=N)ncn3CC(O)CO)CC1 (configuration not stated) | -9 | -15 | i | 1 | 6 | 5 | -181 | -12
Cc1ccc(CN2CCN(Cc3nc4ccccc4nc3C)CC2CCO)cc1 (configuration not stated) | 29 | -19 | i | 11 | -4 | 1 | -2 | -9
COc1ccc(/C=N/NC(=O)c2cccc([N+](=O)[O-])c2)cc1OC(=O)c1ccc(C)cc1 | -6 | 21 | i | -4 | 9 | 3 | -102 | 2
Clc1ccc(-c2nnc3sc(Cc4cccs4)nn23)cc1 | -8 | -18 | i | -3 | 0 | 6 | . | -15
O=C(O)CCCN1C(=O)c2ccc(C(=O)c3cccc([N+](=O)[O-])c3)cc2C1=O | 7 | -11 | i | -6 | -4 | -2 | 8 | 1
Cc1ccc(NC(=O)CSc2nnnn2C)cc1S(=O)(=O)N1CCCCC1 | . | -6 | . | . | 4 | -5 | 16 | .
CCCCCC(=O)Nc1ccc2oc(-c3cncc(Br)c3)nc2c1 | -5 | -8 | i | -1 | 7 | 3 | . | -7
C=CCn1c(COc2ccccc2)nnc1SCC(=O)C(C)(C)C | 3 | -7 | i | 6 | -3 | -4 | . | -6
CC1=C(C(=O)Nc2ccc(C(=O)NCCCN3CCCCC3C)cc2)SCCO1 (configuration not stated) | . | -9 | . | . | -3 | 4 | 12 | .
O=[N+]([O-])c1nn(-c2ccc3c(c2)OCCO3)n(O)c1=NC1CCCCC1 | 21 | -11 | i | -7 | 4 | -9 | -60 | -17
COc1ccc(C2CC(=O)c3sc(N)nc3C2)cc1 (configuration not stated) | -8 | -9 | i | 0 | -4 | 1 | -18 | -19
(list continues)
SMILES | eIF4H FP inh | Yeast UUG start | Rce1 inhib | PABP polyA inh | MT1-MMP act inh | MT1-MMP act inh RFP | Env fusion inh | CSC inhib | others
CC1CCc2[nH]c3ccc(C(=O)O)cc3c2C1 (configuration not stated) | -4 | -13 | i | 4 | 1 | 1 | 2 | -1
COC(=O)c1c(NC(=O)COC(=O)CCNS(=O)(=O)c2ccc(NC(C)=O)cc2)sc(C)c1C | . | . | i | . | 7 | 6 | -382 | -4
O=C(N1CCCC1)N1CCN(S(=O)(=O)c2ccccc2)CC1 | 6 | . | i | 13 | 2 | 3 | -12 | -3
CC(C)(C)OC(=O)N1Cc2[nH]c3ccccc3c2C[C@@H]1C(=O)O | . | -13 | . | . | -2 | 2 | . | -22
O=C(NCc1ccco1)C1Cc2ccccc2CN1C(=O)c1ccco1 (configuration not stated) | 26 | . | i | 22 | -1 | 2 | 5 | 6
COc1ccc([C@H]2CC(=O)C=C(c3cc(F)ccc3OC)C2)cc1 | . | 7 | . | . | 1 | -3 | 8 | 43
COCC1CCN(C(=O)CCc2nnc(C3(c4ccc(Cl)cc4)CCC3)o2)CC1 | -8 | 10 | i | 29 | 3 | 0 | -19 | 10
CCc1ccc2[nH]c(=O)c(CN(CCN(C)C)C(=S)NCc3ccco3)cc2c1 | 48 | . | i | 36 | -10 | 1 | 3 | -8
CCC1=NN2C(=N)/C(=C\c3cccn3-c3cccc(Cl)c3)C(=O)N=C2S1 | 19 | . | i | 6 | 3 | 1 | 5 | 9
O=C(Nc1cnn(C23CC4CC(CC(C4)C2)C3)c1)c1cc(-c2ccccc2)on1 | -3 | -17 | i | 0 | 3 | 0 | 12 | 81*
O=[N+]([O-])c1ccccc1C1Nc2cccc3cccc(c23)N1 | 53 | -17 | i | 18 | 13 | 3 | -171 | 12 | eIF4H FP inh retest=1;PABP polyA inh retest=-9
O=C(CN(c1ccccc1)S(=O)(=O)c1ccccc1)N/N=C/c1ccco1 | 18 | . | i | -6 | -4 | 3 | 6 | -4
COCCNC(=O)C(c1ccc(F)cc1)N(CC1CCCO1)C(=O)CCC(=O)Nc1ccccn1 (configuration not stated) | 6 | . | . | -1 | -1 | 5 | . | .
CO[C@H]1CN(C)C(=O)c2cc(NC(=O)c3cc(C)on3)ccc2OC[C@@H](C)N(C(=O)C2CC2)C[C@H]1C | . | 21 | . | . | 1 | 5 | 11 | .
COc1cccc(CNc2nc3cc(-c4ccc(F)cc4)sc3c(=O)n2C)c1OC | . | -16 | . | . | -2 | -28 | 9 | .
O=S(=O)(c1ccc(Cl)cc1)N1CCC(O)(c2cccnc2)CC1 | -13 | -23 | i | 14 | 6 | 1 | -17 | -8
Cn1cc(S(=O)(=O)N2CCN(c3ccccc3F)CC2)c(=O)n(C)c1=O | -14 | -15 | i | 7 | 2 | 3 | -29 | -1
COc1ccc(NS(=O)(=O)c2cccc(C(=O)N3CCOCC3)c2)cc1 | . | -5 | . | . | 1 | 3 | 10 | .
